TRPV1 potentiator: enhances activation of the human vanilloid receptor TRPV1. TRPV1-expressing cells, Fluo-8 calcium influx, capsaicin EC20 potentiation; host cell line not named in the record; control for the full effect not named in the record. Q8NER1. 320,000 compounds, 0.02% hits. potentiation, % at 8.33 µM; active means potentiation above 80%; inconclusive means 30% to 80%; inactive means below 30%; further: 0% is about no effect
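Fluo-8 calcium influx in TRPV1-expressing cells, kinetic read (ex 480/em 520 nm). Compound added and read 3 min for agonist activity, followed by capsaicin at EC20 final and 2 min further read for enhancement.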
Sfp PPTase inh: blocks B. subtilis Sfp PPTase activity | 310,000 compounds, 3.5% hits | Potency, µM, without a hit: max response, negative = inhibition, actives largely listed as inhibitors | Biochemical Sfp PPTase activity, qHTS; active means well fitted inhibition curve with a large enough effect; inconclusive means small, poorly fitted or top-dose-only effect, or another doubt; inactive means no such curve, though single readings can be large or run the other way;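 further: the enzyme is Sfp with the accession as filed and its product quenches rhodamine fluorescence; potency means the concentration at half of the fitted maximal effect; 0% = enzyme reaction without inhibitor and -100% = no enzyme wells; top concentration of the series not given in the record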
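After 15 min at room temperature with compound, 15 nM Sfp received 5 uM rhodamine-CoA plus 12.5 uM BHQ-2-ybbR (50 mM Hepes pH 7.6, 10 mM MgCl2). Rate came from the fluorescence difference over 30 min, ex 525/em 598 nm.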
PINK1 expr mod: PINK1 expression modulation. PINK1 immunofluorescence, high-content cytometry, 24 h. AID 624263. 410,000 compounds, 0.2% hits. Potency, µM (highest dose often 76.6 µM), inactives show at the highest dose activation (PINK1 increase), hits mostly activators; active = well fitted activation curve with a large enough effect; inconclusive = small, poorly fitted or top-dose-only effect; inactive = flat fitted curve, though single readings scatter; cell line not stated here;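 further: potency means the concentration at half of the fitted maximal effect; % of control where 0% means no effect; nearly all actives have a fitted effect of over 65% in size; a mitochondrial uncoupler was the plate control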
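Compound titrations (5 concentrations, 24 h) on a stable cell line; DMSO and CCCP controls. Endpoint: fixed-cell PINK1 immunofluorescence with mitochondrial, cell and nuclear markers, scanned by microplate cytometer.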
Six1-Eya2 inh: blocks human Six1 binding to Eya2 | AlphaScreen GST-Six1/His-Eya2 binding, biochemical; hits give low values; control for the full effect not named in the record | Q15475+O00167 | 360,000 compounds, 0.56% hits | activity change, % (test concentration not listed); in the data active = activity change below about -65%; inconclusive = about -30% to -65%; inactive = above about -30%; further: on the % scale 0 is the no-effect control and ±100 the full control effect
Target sequence (O00167 whole entry, looked up): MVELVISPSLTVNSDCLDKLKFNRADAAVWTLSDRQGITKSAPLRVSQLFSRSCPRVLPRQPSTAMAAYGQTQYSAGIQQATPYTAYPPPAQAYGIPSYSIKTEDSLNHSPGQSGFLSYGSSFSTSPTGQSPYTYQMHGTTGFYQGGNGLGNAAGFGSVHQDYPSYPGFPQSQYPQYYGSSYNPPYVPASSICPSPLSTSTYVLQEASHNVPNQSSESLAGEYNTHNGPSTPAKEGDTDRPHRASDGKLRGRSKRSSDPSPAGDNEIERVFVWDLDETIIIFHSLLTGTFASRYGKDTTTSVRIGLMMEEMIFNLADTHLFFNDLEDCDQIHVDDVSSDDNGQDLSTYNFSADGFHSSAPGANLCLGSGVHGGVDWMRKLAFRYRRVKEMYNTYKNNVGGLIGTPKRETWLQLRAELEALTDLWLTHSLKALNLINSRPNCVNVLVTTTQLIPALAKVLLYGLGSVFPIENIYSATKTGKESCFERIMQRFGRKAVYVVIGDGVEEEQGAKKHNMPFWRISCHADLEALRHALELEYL
Target sequence (Q15475 whole entry, looked up): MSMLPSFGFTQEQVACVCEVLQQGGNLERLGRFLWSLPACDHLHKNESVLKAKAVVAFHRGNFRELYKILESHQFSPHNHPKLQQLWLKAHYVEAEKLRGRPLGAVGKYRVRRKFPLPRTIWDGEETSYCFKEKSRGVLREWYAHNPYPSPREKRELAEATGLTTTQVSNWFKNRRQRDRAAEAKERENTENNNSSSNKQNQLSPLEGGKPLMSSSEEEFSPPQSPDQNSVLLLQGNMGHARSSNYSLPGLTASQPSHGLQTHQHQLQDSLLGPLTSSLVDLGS
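Six1/Eya2 binding was read as AlphaScreen signal after compounds were pinned into GST-Six1 plus His-tagged Eya2 (5X stock 250/500 nM) in pH 8.0 Tris/NaCl/TCEP buffer, beads added, then incubated 1 h, 37 C, dark.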
CtBP-E1A inh: inhibitors of CtBP/E1A interaction; AlphaScreen GST-E1A/His-CtBP binding, 1536-well; hits give low values; control for the full effect not named in the record; activity change, % (no concentration beside the values); 340,000 compounds, 0.49% hits; AID 651724; in the data active means activity change below about -65%; inconclusive means about -30% to -65%; inactive means above about -30%; further: on the % scale 0 is the no-effect control and ±100 the full control effect
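Homogeneous bead-based format: GST-tagged E1A captured on glutathione donor beads, His-tagged CtBP on nickel acceptor beads; compounds precede bead addition by 2 h at 37 °C.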
D2 potentiator: human D2 receptor positive allosteric modulation; P14416; DiscoveRx D2 beta-arrestin cells, luminescence, 90 min; 100% = 57 uM dopamine signal; potentiation, % (no concentration beside the values); 360,000 compounds, 0.23% hits; active = potentiation of 50% or more; inconclusive = 30% to 50%; inactive = 30% or less;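 further: compound concentration not given in the record; tested on top of an EC20 dose of dopamine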
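PathHunter beta-arrestin assay in DiscoveRx D2 cells. Compounds were added with an EC20 of dopamine (50 nM final) for 90 min at 37 deg C. Luminescence was read 1 h after detection reagent, with 57 uM dopamine as the EC100 control.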
D2 ag: agonists of human D2 dopamine receptor (beta-arrestin); P14416; DiscoveRx PathHunter D2 beta-arrestin, luminescence, 90 min; 100% = 57 uM dopamine signal; activation, % (no concentration beside the values); 360,000 compounds, 0.084% hits; AID 624465; in the data active = activation above about 40%; inconclusive = about 15% to 40%; inactive = below about 15%; further: compound concentration not given in the record; the text of the record calls up to 30% inactive
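DiscoveRx PathHunter D2 beta-arrestin cells (2,100/well) attached overnight, then compound-stimulated 90 min at 37 C in HBSS/10 mM HEPES/0.1% Tween-20 buffer; beta-galactosidase complementation read by luminescence after 1 h at ambient temperature. Dopamine 57 uM final (EC100) as control.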
* = called active by the depositor; ? = inconclusive; / = not tested or not shown; & = joins results of further samples; [ ] = dose if it differs, or a comment.

SMILES	TRPV1 potentiator	Sfp PPTase inh	PINK1 expr mod	Six1-Eya2 inh	CtBP-E1A inh	D2 potentiator	D2 ag
O=C(O)CCCC(=O)Nc1ccc(Cl)c(Cl)c1	-18	13%	-1.9%	-4	1	-16	-4.4
Cc1ccc(S(=O)(=O)CCSc2ccc(C(F)(F)F)cn2)cc1	9	15%	-0.1%	-1	3	-8	-3.0
Cc1cccc(C)c1OCCCn1ccnc1	8	-26%	-1.2%	-1	/	-27	-4.1
O=C(NCc1cccnc1)C1CCCN(S(=O)(=O)c2ccccc2)C1 (stereo not drawn)	1	10%	/	2	-9	0	2.6
COc1ccc(OC)c(C2Nc3c(Cl)ccc(C(=O)O)c3C3C=CCC32)c1 (stereo not drawn)	-4	22µM*	3.1%	-25	-12	-10	-3.2
Cc1cc(C)cc(NC(=O)COC(=O)c2n[nH]c3ccccc23)c1	13	8%	2.1%	-2	-20	0	0.0
O=C1S/C(=C\c2ccc(N3CCOCC3)o2)C(=O)N1c1ccccc1	9	4µM*	?	0	/	0	1.4
O=[N+]([O-])c1ccc(NCc2ccncc2)cc1	-8	12%	-0.8%	2	0	-8	1.0
CCCc1nc2ccccc2c(C(=O)OC(C)C(=O)NCc2ccc3c(c2)OCO3)c1CC (stereo not drawn)	3	6%	8.0%	-16	-4	-11	-1.6
CCOC(=O)c1nc(N)c(=O)n(-c2ccc(C)cc2)n1	8	21%	-0.2%	11	3	0	-2.0
COc1ccc(CC(N)c2csc(NC(=O)NCCc3ccccc3)n2)cc1 (stereo not drawn)	/	/	-0.4%	-28	-26	1	10
COc1cccc(N2C(=O)CC(N3CCN(S(=O)(=O)c4ccccc4)CC3)C2=O)c1 (stereo not drawn)	6	9%	1.0%	-2	-3	-7	-2.8

Ordered by length of the SMILES (ascending): part of the list above
SMILES	TRPV1 potentiator	Sfp PPTase inh	PINK1 expr mod	Six1-Eya2 inh	CtBP-E1A inh	D2 potentiator	D2 ag
O=[N+]([O-])c1ccc(NCc2ccncc2)cc1	-8	12%	-0.8%	2	0	-8	1.0
Cc1cc(C)cc(NC(=O)COC(=O)c2n[nH]c3ccccc23)c1	13	8%	2.1%	-2	-20	0	0.0
CCCc1nc2ccccc2c(C(=O)OC(C)C(=O)NCc2ccc3c(c2)OCO3)c1CC (stereo not drawn)	3	6%	8.0%	-16	-4	-11	-1.6

Continued:
SMILES	TRPV1 potentiator	Sfp PPTase inh	PINK1 expr mod	Six1-Eya2 inh	CtBP-E1A inh	D2 potentiator	D2 ag
COc1c(Cl)cc(Cl)cc1CNCCNCCO	-2	17%	5.8%[38.3 µM]	2	3	-9	-0.5
Cc1cccc(C(=O)NC(=S)Nc2ccc(S(=O)(=O)N3CCN(C)CC3)cc2)c1	-3	-23%	0.7%	-27	-7	-37	-2.9
O=S(=O)(NCCCN1CCN(c2ccccc2F)CC1)c1cccc2cccnc12	/	4%	0.7%	4	-9	1	-3.5
Cc1ccc(C)c(N(CC(=O)NC2CCCC2)C(=O)c2cc3cc4cc(C)ccc4nc3s2)c1	-6	3%	/	7	3	4	-1.8
S=c1[nH]nc(C23CC4CC(CC(C4)C2)C3)n1Cc1ccco1	/	-13%	0.4%	-3	-1	-7	5.3
CCC(C(=O)NC(C)CCc1ccco1)n1nc(C)n2c(cc3occc32)c1=O (stereo not drawn)	?	3%	0.6%	2	-3	3	-2.8
O=C(Nc1ccc(-c2csc(Nc3ccccc3)n2)cc1)c1cc([N+](=O)[O-])cc(C(F)(F)F)c1	25	21%	?	-16	0	5	3.3
COc1ccc2nc(Nc3nc(CSc4ccc(C)cc4)cc(=O)[nH]3)nc(C)c2c1	9	-24%	0.3%	-5	2	1	4.6
CCN(CC)CCN1C(=O)C2C(C(=O)Nc3cccc(C)c3)C3C=CC2(O3)C1C(=O)NC1CCCC(C)C1C (stereo not drawn)	15	11%	0.4%	2	1	-4	4.0
CC1(C(=O)NCC2CCCO2)Oc2cccnc2NC1=O (stereo not drawn)	5	9%	0.2%	-15	-7	-5	-4.4
Cc1cc(=O)oc2cc(OC(=O)C3CCN(C(=O)c4ccc(F)cc4)CC3)ccc12	5	/	3.8%	8	-24	4	2.8
COC(=O)c1c(NC(=O)CCCC(=O)O)sc2c1CCC2	11	15%	-6.5%[38.3 µM]	-3	1	-7	0.5

Single values from above:
In Sfp PPTase inh, S=c1[nH]nc(C23CC4CC(CC(C4)C2)C3)n1Cc1ccco1 shows -13%
In Six1-Eya2 inh, CC1(C(=O)NCC2CCCO2)Oc2cccnc2NC1=O (stereo not drawn) shows -15
In CtBP-E1A inh, CCN(CC)CCN1C(=O)C2C(C(=O)Nc3cccc(C)c3)C3C=CC2(O3)C1C(=O)NC1CCCC(C)C1C (stereo not drawn) shows 1
In PINK1 expr mod, Cc1cccc(C(=O)NC(=S)Nc2ccc(S(=O)(=O)N3CCN(C)CC3)cc2)c1 shows 0.7%
In PINK1 expr mod, COC(=O)c1c(NC(=O)CCCC(=O)O)sc2c1CCC2 shows -6.5%[38.3 µM]
In Six1-Eya2 inh, O=C(Nc1ccc(-c2csc(Nc3ccccc3)n2)cc1)c1cc([N+](=O)[O-])cc(C(F)(F)F)c1 shows -16

(continued)
SMILES	TRPV1 potentiator	Sfp PPTase inh	PINK1 expr mod	Six1-Eya2 inh	CtBP-E1A inh	D2 potentiator	D2 ag
CC1(C)Cc2c(sc(NC(=O)C(=O)NCC3CCCO3)c2C(N)=O)CO1 (stereo not drawn)	10	-1%	-0.2%	7	3	7	-3.8
O=C(COC(=O)Cc1ccccc1F)Nc1cccc(F)c1	-13	16%	-0.6%	-3	4	3	-1.0
CCCNC(=O)Cn1c(-c2ccc(F)cc2)cc(C(=O)OCC)c1C	-5	21%	-0.7%	2	2	-2	0.7
CCC(=O)Nc1cc(-c2cc3ccccc3oc2=O)ccc1OC	?	5%	-1.9%	8	/	-8	3.0
Cc1nonc1OCCN1CCN(c2ccccc2[N+](=O)[O-])CC1	9	-15%	15%	-8	-6	-16	2.0
CC(C)(C)c1cc(CSC(=S)NC2CCS(=O)(=O)C2)c(Br)c(C(C)(C)C)c1 (stereo not drawn)	-42	31%[activator]	-2.2%	-6	5	1	-3.8
CC(C)CNC(=O)C1(C)CCN1C(=O)c1ccc(C(C)(C)C)cc1 (stereo not drawn)	/	/	3.2%	3	1	-4	-6.6
O=C(NCCC1=CCCCC1)Nc1ccc2nsnc2c1	12	10%	14%	6	9	-11	2.0
O=C(Cn1nnc(-c2ccc(F)cc2)n1)NC(=O)NC1CCCCC1	/	/	11%	2	-17	-6	-0.1
Oc1c(C=C2N=c3ccccc3=N2)sc(=S)n1-c1ccc2ccccc2c1	-4	16%	11%	-3	-5	-3	3.3
O=C(CSc1nnc2scc(-c3ccccc3)n12)c1ccc2c(c1)OCCO2	-4	-13%	11%	-5	3	3	0.1
COc1ccc(Nc2ncnc3sc(C)cc23)c(OC)c1	-3	1%	-1.4%	-3	-4	1	2.9
CCOc1ccc(/C=N/NC(=O)c2cc3ccccc3cc2OC)cc1	12	12%	7.9%	0	2	-13	-3.7
CCOc1ccc(CC(=N)C2=C(O)CC(C)(C)CC2=O)cc1OCC	5	4%	1.0%	3	-3	-5	-3.6
Cc1cc(NC(=O)CSc2nnc(COc3cccc(C)c3C)n2Cc2ccco2)no1	-5	-5%	?	0	7	-14	1.6
CCCS(=O)(=O)N1CCCC(C(=O)NCCN2CCOCC2)C1 (stereo not drawn)	3	17%	0.0%	6	6	17	0.6
O=C(Nc1ccccc1)C1COc2ccccc2O1 (stereo not drawn)	-27	27%	-1.2%	6	0	-12	0.0
Cn1c(=O)n(C)c2cc(N3CCCC3)c(NC(=O)c3cccc(F)c3)cc21	-2	4%	-0.8%	-5	-8	5	0.4
COc1ccc(OC)c(N(C)S(=O)(=O)c2ccc3c(c2)N(C(C)=O)CCO3)c1	6	14%	3.6%	1	/	-5	2.1
CCn1cc(C(=O)NCCCN2CCCC(C)C2)c(=O)c2cc(S(=O)(=O)N(C)C3CCCCC3)ccc21 (stereo not drawn)	-2	27%	3.0%&1.0%	1	/	-14	0.7
COC(=O)C1Cc2c([nH]c3ccccc23)CN1C(C)=O (stereo not drawn)	-12	-14%	3.9%	-6	-7	-4	-6.2
Cc1ccc(OCC(=O)Nc2ccc3c(c2)nc2n3CCOC2)cc1	14	23%	2.9%	-1	6	7	3.3
O=C(O)CCC(=O)/C=C/c1ccccc1	7	5%	-1.3%	7	6	-5	0.2
Cc1ccc(NC(=O)CSc2nc(C)c(Cc3ccccc3)c(=O)[nH]2)cc1C	2	9%	-0.1%&0.0%	4	/	-3	-1.3

In the list so far, 2 have a CF3 group.
SMILES	TRPV1 potentiator	Sfp PPTase inh	PINK1 expr mod	Six1-Eya2 inh	CtBP-E1A inh	D2 potentiator	D2 ag
Cc1ccc(S(=O)(=O)CCSc2ccc(C(F)(F)F)cn2)cc1	9	15%	-0.1%	-1	3	-8	-3.0
O=C(Nc1ccc(-c2csc(Nc3ccccc3)n2)cc1)c1cc([N+](=O)[O-])cc(C(F)(F)F)c1	25	21%	?	-16	0	5	3.3

Remaining list, next part.
SMILES	TRPV1 potentiator	Sfp PPTase inh	PINK1 expr mod	Six1-Eya2 inh	CtBP-E1A inh	D2 potentiator	D2 ag
Cc1cccc(C)c1NC(=O)CCCN1C(=O)C(c2ccccc2)Oc2cccnc21 (stereo not drawn)	-4	6%	-1.4%	-1	3	-2	7.9
Cc1cccc(NS(=O)(=O)c2ccc(C)c(C(=O)NCC(c3cccs3)N(C)C)c2)c1 (stereo not drawn)	12	/	0.2%	2	-10	-11	0.2
COc1ccc(CC(=O)NC(CC(=O)O)c2ccc(OC)cc2)cc1 (stereo not drawn)	-2	-10%	0.6%	22	0	-14	-2.4
CN(C)c1ncc(S(=O)(=O)c2ccccc2)c(-c2ccc(Cl)cc2Cl)n1	2	7%	6.1%	4	-20	3	0.5

Only Six1-Eya2 inh and Sfp PPTase inh, for some of the entries so far:
mol	Six1-Eya2 inh	Sfp PPTase inh
CN(C)c1ncc(S(=O)(=O)c2ccccc2)c(-c2ccc(Cl)cc2Cl)n1	4	7%
O=[N+]([O-])c1ccc(NCc2ccncc2)cc1	2	12%
CC(C)(C)c1cc(CSC(=S)NC2CCS(=O)(=O)C2)c(Br)c(C(C)(C)C)c1 (stereo not drawn)	-6	31%[activator]
O=S(=O)(NCCCN1CCN(c2ccccc2F)CC1)c1cccc2cccnc12	4	4%
COc1ccc2nc(Nc3nc(CSc4ccc(C)cc4)cc(=O)[nH]3)nc(C)c2c1	-5	-24%
